Source: PubChem (several laboratories)
RGS16-Gao HTS = modulates binding between human RGS16 and Galphao | O15492+P09471 | bead-based flow cytometry RGS16-Galphao binding, fluorescence; actives lie on both sides | binding response (% of control), % at 10 µM | 220,000 tested, 0.38% active;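 active means below 25% or above 175%, edge rows of some plates excepted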;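 further: Galphao activated by GDP with aluminum fluoride before binding; 100% = wells without compound and 0% = beads without RGS; some results beyond the cut were filed as inactive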
Target sequence (O15492 whole entry, looked up): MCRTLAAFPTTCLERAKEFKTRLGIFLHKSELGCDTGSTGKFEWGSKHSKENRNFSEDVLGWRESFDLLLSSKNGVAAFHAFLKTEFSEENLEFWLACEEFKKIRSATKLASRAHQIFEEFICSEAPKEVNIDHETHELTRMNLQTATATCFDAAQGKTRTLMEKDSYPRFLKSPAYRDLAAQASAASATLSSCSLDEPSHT
Target sequence (P09471 whole entry, looked up): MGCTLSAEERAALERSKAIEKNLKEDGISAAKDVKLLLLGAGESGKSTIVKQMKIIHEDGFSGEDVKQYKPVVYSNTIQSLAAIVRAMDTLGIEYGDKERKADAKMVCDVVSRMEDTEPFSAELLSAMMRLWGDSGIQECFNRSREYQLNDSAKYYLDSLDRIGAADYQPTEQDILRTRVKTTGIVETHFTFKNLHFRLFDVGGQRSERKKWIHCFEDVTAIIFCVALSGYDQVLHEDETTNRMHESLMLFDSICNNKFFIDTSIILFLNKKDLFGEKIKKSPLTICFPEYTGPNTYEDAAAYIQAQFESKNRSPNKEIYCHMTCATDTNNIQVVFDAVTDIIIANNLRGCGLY
PKD1 kinase inh = inhibitors of human PKD1 kinase; AID 797; Q15139; 200,000 tested, 0.056% active; PKD1 kinase fluorescence polarization assay; inhibition, %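 (about 10 µM by stock and volumes)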;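 active means inhibition of 50% or more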;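 further: controls were vehicle for no effect and a reference inhibitor for full effect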
GALR2 ag = GALR2 (human) receptor agonism; AID 803; 140,000 tested, 0.48% active; GALR2-expressing cells, agonist activation read-out; activation, %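 (tested at 5 µM)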;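 active means above mean plus 3 SD of all compounds, about 5% in these data, not always enough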;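 further: 0% = vehicle buffer wells and 100% = reference agonist at full effect; tested in CHO reporter cells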
Target sequence (O43603 whole entry, looked up): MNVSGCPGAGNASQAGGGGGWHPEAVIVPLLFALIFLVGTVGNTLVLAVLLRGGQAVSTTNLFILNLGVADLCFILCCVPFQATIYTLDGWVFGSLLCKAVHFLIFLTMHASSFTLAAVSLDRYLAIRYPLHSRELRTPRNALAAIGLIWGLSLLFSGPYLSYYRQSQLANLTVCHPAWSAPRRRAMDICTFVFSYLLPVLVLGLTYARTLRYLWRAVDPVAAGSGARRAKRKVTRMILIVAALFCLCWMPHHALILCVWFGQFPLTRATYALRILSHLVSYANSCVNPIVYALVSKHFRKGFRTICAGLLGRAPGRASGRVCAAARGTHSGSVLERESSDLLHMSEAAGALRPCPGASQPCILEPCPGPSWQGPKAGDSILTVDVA
INS promoter inh = TRM-6 insulin promoter activity inhibition; TRM-6 cells (human fetal islet line), insulin promoter-eGFP reporter, imaging; reporter expression induced with tamoxifen; inhibition, % at 2 µM; 130,000 tested, 0.9% active; AID 1273;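 active means inhibition above the mean plus 3 SD, with well images judged a real hit on visual review, cut at about 60% in these data, passing the limit was not always enough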
HSV augment = increases HSV replication in cells | HSV replication augmentation in cells, fold increase | maximum fold increase | 220,000 tested, 0.005% active;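 active means peak rise of 1.5-fold or more in the series; tested in PC3 cells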;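 further: first round at 10 µM; read as green reporter fluorescence; hits show the peak of a series up to 25 µM; 1 = signal of infected wells without compound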
INS promoter inh cell count = second read-out of INS promoter inh, no call of its own (marks repeat the call); normalized cell count, %; measured here: cell count, toxicity; reference of the scale not given here;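 cells exposed to compound for 48 h; stained nuclei by imaging scaled within each plate; lower means fewer cells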
HSV augment primary fold = recorded beside HSV augment, whose call it bears; fold increase; compound at 10 µM; measured here: primary screen fold increase 10 uM; tested in PC3 cells;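 GFP signal in the first replicate; 1 = infected wells without compound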
* = called active by the depositor; i = inactive; / = no result given.

mol | RGS16-Gao HTS | PKD1 kinase inh | GALR2 ag | INS promoter inh | INS promoter inh cell count | HSV augment | HSV augment primary fold
O=[N+]([O-])c1cc(S(=O)(=O)c2ccc(N3CCCCC3)c([N+](=O)[O-])c2)ccc1N1CCCCC1 | 51 | -3 | -2.9 | 27 | 78 | i | 0.99
c1coc(C2Nc3ccccc3-c3nc4ccccc4n32)c1 (stereo not drawn) | 137 | -4 | -1.6 | 44 | 114 | i | 0.85
CCCC(=O)N1CCN(c2ccc(NC(=O)C(C)(C)C)cc2)CC1 | 100 | -3 | -0.9 | 3 | 119 | i | 0.96
CCOc1ccc(OCC)c(NC(=O)CC2Oc3ccc(C)cc3NC2=O)c1 (stereo not drawn) | 118 | -1 | -1.2 | / | / | i | 1
OC(CNC1CCCC1)COc1c(F)cc(Br)cc1F (stereo not drawn) | 103 | -1 | -1.2 | 7 | 80 | i | 0.86
Cc1cc(C)cc(OCC(=O)OCCN2C(=O)c3ccccc3C2=O)c1 | 100 | -4 | -3.6 | -54 | 95 | i | 0.92
COc1ccc(CCC(=O)NNC(=S)Nc2cccc(C(C)=O)c2)cc1 | 99 | -2 | / | -129 | 97 | i | 1.1
CSCC[C@H](NC(=O)OC(C)(C)C)C(=O)NCC1CCC(C(=O)O)CC1 (stereo partly drawn) | 102 | / | / | / | / | i | 1.1
COc1ccc(C(=O)Nc2ccnc(-c3cccnc3)n2)cc1 | 96 | 0 | / | 15 | 88 | i | 1.2
CCN(CC)CCn1c2ccccc2c2cnc(N)c(C#N)c21 | 114 | 11 | 2.1 | 3 | 125 | i | 0.65
COC(=O)CSc1nc(N)c(C#N)c(-c2ccc(O)cc2)c1C#N | 99 | / | / | / | / | i | 0.75
Cc1cccc(C)c1NC1=NC2(CCCCC2)N=C(N)N1 | 100 | -6 | -3.5 | / | / | i | 0.83
Cc1ccc(S(=O)(=O)N2CCOCC2)cc1NC(=O)COC(=O)c1cccnc1Cl | 95 | -2 | / | / | / | i | 1
COc1ccc(C(=O)NCC(=O)OCC(=O)c2ccc3c(c2)NC(=O)CO3)cc1 | 101 | -4 | / | / | / | i | 1.1
CCOC(=O)c1[nH]cnc1C(=O)Nc1cccc(Cl)c1 | 103 | 1 | / | / | / | i | 0.82
C/C(=N\OCC(=O)N/N=C/c1ccccc1)c1cccs1 | 97 | 0 | -1.6 | 9 | 98 | i | 0.81
COC(=O)Cc1cc(=O)n(-c2ccccc2)[nH]1 | 101 | -2 | -1.8 | -100 | 135 | i | 1
O=C(/C=C/Nc1ccccc1Oc1ccccc1)c1ccco1 | 100 | 1 | / | -42 | 138 | i | 1.1
CCN(CC)CCSc1nc(O)c(-c2ccccc2)c(=O)[nH]1 | 101 | 10 | 0.2 | 5 | 75 | i | 1
Cc1ccc2nc(SCC(=O)Nc3c(C)n(C)n(-c4ccccc4)c3=O)[nH]c2c1 | 88 | -2 | -1.6 | 14 | 116 | i | 0.97
Cc1cc(C(=O)NCc2ccco2)cs1 | 104 | -2 | -1.3 | 6 | 104 | i | 0.95
COc1cc2c(cc1OC)C(COc1ccccc1OC)N(C(=O)c1ccco1)CC2 (stereo not drawn) | 68 | -4 | / | 17 | 58 | i | 0.91
COCCCn1cnc2c(c1=O)c1nc3ccccc3nc1n2-c1ccc(C)cc1 | 101 | -6 | 0.6 | 25 | 127 | i | 0.85
Cc1ccc(CNS(=O)(=O)c2ccc(C(C)(C)C)cc2)n1C | 59 | -7 | -4.6 | 29 | 218 | i | 0.88
O=C(N/N=C/c1ccncc1)c1cccc([N+](=O)[O-])c1 | 96 | -7 | -0.8 | 19 | 109 | i | 1.1
C=CCn1c(SCc2nc3ccccc3[nH]2)nnc1-c1cccc(OC)c1 | 139 | -5 | -3.9 | -21 | 103 | i | 1.1
CC(C)(C)OC(=O)NNC(=S)NCc1ccc(Cl)cc1 | 93 | -5 | -1.9 | -65 | 116 | i | 0.95
Cc1[nH]c(=O)[nH]c(=O)c1S(=O)(=O)N1CCCC(C(=O)NCc2ccc3c(c2)OCO3)C1 (stereo not drawn) | 96 | -2 | / | / | / | i | 0.94
Cn1c(=O)[nH]c(=O)c2c1nc(Br)n2Cc1ccccc1Cl | 70 | -2 | 0.0 | 50 | 98 | i | 0.9
Cc1c(O)ccc2c3c(c(=O)oc12)CCC(C)C3 (stereo not drawn) | 103 | -5 | -1.3 | 49 | 129 | i | 1

Four entries out of the list above, ordered by their value in GALR2 ag, ascending:
| compound | RGS16-Gao HTS | PKD1 kinase inh | GALR2 ag | HSV augment | HSV augment primary fold |
| --- | --- | --- | --- | --- | --- |
| Cc1ccc(CNS(=O)(=O)c2ccc(C(C)(C)C)cc2)n1C | 59 | -7 | -4.6 | i | 0.88 |
| C=CCn1c(SCc2nc3ccccc3[nH]2)nnc1-c1cccc(OC)c1 | 139 | -5 | -3.9 | i | 1.1 |
| Cc1ccc2nc(SCC(=O)Nc3c(C)n(C)n(-c4ccccc4)c3=O)[nH]c2c1 | 88 | -2 | -1.6 | i | 0.97 |
| Cn1c(=O)[nH]c(=O)c2c1nc(Br)n2Cc1ccccc1Cl | 70 | -2 | 0.0 | i | 0.9 |

Following part.
mol | RGS16-Gao HTS | PKD1 kinase inh | GALR2 ag | INS promoter inh | INS promoter inh cell count | HSV augment | HSV augment primary fold
C=CCN(C(=O)CCC(=O)O)C1CC(=O)N(c2ccc(OCCC)cc2)C1=O (stereo not drawn) | 104 | -10 | -0.1 | / | / | i | 0.91
CCOc1ccc(C)cc1S(=O)(=O)n1ccnc1 | 109 | -1 | -1.9 | -322 | 72 | i | 0.91
O=C(NCCSc1c(-c2ccccc2)[nH]c2ccccc12)c1cc2ccccc2oc1=O | / | -2 | -3.0 | -10 | 85 | i | 0.88
O=C(Nc1c(Cl)cc(Cl)cc1-c1nc2ccccc2s1)c1ccc(Br)o1 | 95 | -8 | -2.3 | 24 | 78 | i | 1
Cc1cc(C)c2nc(-c3ccccn3)cc(C(=O)Nc3ccc(S(=O)(=O)Nc4cc(C)on4)cc3)c2c1 | 97 | 6 | -0.9 | -6 | 64 | i | 1
O=C(NCCC1=CCCCC1)C1CCN(S(=O)(=O)N2CCOCC2)CC1 | 99 | -2 | -1.9 | / | / | i | 1.2
COc1ccc(-c2cc(-c3ccc(OC)c(OC)c3)n[nH]2)c(O)c1 | 103 | -7 | -2.2 | 13 | 109 | i | 0.72
Cc1ccc(N2CCN(C(=O)c3ccccc3NC(=O)C3CC=CCC3C(=O)O)CC2)cc1 (stereo not drawn) | 98 | 0 | -2.9 | -14 | 180 | i | 0.98
COc1cccc(C2SCC(=O)N2c2ccc(C)cc2)c1OC (stereo not drawn) | 108 | -1 | -2.0 | 12 | 116 | i | 0.97
Cc1cccc2sc(NC(=O)c3cccc(S(=O)(=O)N4CCc5ccccc54)c3)nc12 | 110 | 3 | -0.7 | -43 | 106 | i | 0.92
C/C(CC(=O)Nc1ccc2c(c1)OCO2)=N\NC(=O)OC(C)(C)C | 102 | 1 | / | / | / | i | 0.77
COc1ccc(/C=C2\CCCC3C2=NC(=S)NC3c2ccc(OC)cc2)cc1 (stereo not drawn) | 90 | -10 | -1.8 | -23 | 76 | i | 0.65
COc1ccc(C(=O)N/N=C/c2ccc(OC(=O)c3ccccc3)cc2)cc1 | 111 | -6 | -0.2 | -17 | 107 | i | 1
CCOC(=O)Cc1csc(NC(=O)c2cc(=O)c3ccccc3o2)n1 | 102 | -3 | / | -11 | 112 | i | 1.1
Cc1c(C=O)c2ccccc2n1CC(=O)NCc1ccccc1 | 103 | -3 | / | -36 | 66 | i | 1

Next section:
Values run as follows: RGS16-Gao HTS	PKD1 kinase inh	GALR2 ag	INS promoter inh	INS promoter inh cell count	HSV augment	HSV augment primary fold
> Cc1ccc(-c2nc(CS(=O)(=O)CC(=O)N3CCCCCC3)c(C)o2)cc1
 : 92	-6	-0.8	/	/	i	1.1
> C=C(C)CNC(=S)NNC(=O)CCn1c2ccc(Cl)cc2c2cc(Cl)ccc21
 : 103	1	-0.9	-40	51	i	0.85
> COc1cccc(Nc2ccc(-n3ccnc3)nn2)c1
 : 103	5	/	/	/	i	0.97
> Cc1ccccc1NC(=O)CN1C(=O)NC2(CCCCC2)C1=O
 : /	3	-1.0	-25	49	i	0.81
> COC(=O)c1c(C)oc2ccc(NS(=O)(=O)c3cc(OC)ccc3OC)cc12
 : 106	0	-0.8	/	/	i	0.92
> COc1ccc(N=C2C(=O)N3c4c(cccc42)C(C)=CC3(C)C)cc1
 : 143	-12	-0.6	/	/	i	0.88
> Cc1ccc(CCNC(=O)C2CC(c3cc(C(F)(F)F)cc(C(F)(F)F)c3)=NO2)cc1 (stereo not drawn)
 : 92	/	/	/	/	i	1.1
> COc1ccc2cc(C(=O)C3CCCN(Cc4cnc(N5CCOCC5)s4)C3)ccc2c1 (stereo not drawn)
 : 103	1	/	/	/	i	0.96
> C[n+]1ccc(/C=C/c2ccc(Br)cc2)cc1
 : 101	0	-0.6	10	170	/	/
> CCn1cc(C(=O)OCC(=O)Nc2c(C)n(C)n(-c3ccccc3)c2=O)c(=O)c2ccc(C)nc21
 : 104	11	-1.8	3	105	i	0.92
> CCC1CCCCN1CCCNC(=O)CCCNC(=O)Cn1cnc2sc3c(c2c1=O)CCCC3 (stereo not drawn)
 : 96	-5	/	/	/	i	0.87
> O=S(=O)(NCc1ccco1)c1cccc2cccnc12
 : 80	-11	-0.9	34	81	i	1.2
> Cc1ccc(C(=O)Nc2nnc(-c3ccco3)o2)cc1C
 : 106	-2	0.1	/	/	i	1.2
> COC(=O)c1cnc(SCc2ccc(Cl)cc2)n1C
 : 104	1	/	/	/	i	1.1
> CCCc1cc(=O)[nH]c(SCC(=O)C(C)(C)C)n1
 : 94	-2	0.1	9	113	i	1.1
> CCC(C(=O)NN1C(=O)c2ccccc2C1=O)c1ccccc1 (stereo not drawn)
 : 88	2	/	/	/	i	0.94
> Cc1c(NC2(C#N)CCCC2)c(=O)n(-c2ccccc2)n1C
 : 101	1	/	/	/	i	0.95
> Cc1[nH]n(-c2ccccc2)c(=O)c1C=NCC1CCCO1 (stereo not drawn)
 : 102	3	/	/	/	i	1
> Fc1ccccc1N1CCN(c2ncnc3[nH]ncc23)CC1
 : 102	-8	-1.7	9	93	/	/
> COc1ccc(NC(=O)c2cc(C)on2)cc1
 : 101	-7	/	/	/	i	0.92
> CN(NC(=O)c1ccc(Cl)cc1)c1ncc(C(F)(F)F)cc1Cl
 : 101	/	/	/	/	i	1.1
> COCCNC(=O)c1ccccc1-c1nc(-c2ccccc2OC)no1
 : 106	5	-1.8	i	43	i	1.1
> CCOC(=O)c1ccc(S(=O)(=O)Nc2ccc3cn[nH]c3c2)cc1
 : 90	5	-1.9	-5	143	i	0.98
> Cc1conc1NC(c1cccs1)c1ccc2cccnc2c1O (stereo not drawn)
 : 93	0	-3.1	/	/	i	0.83
> CCS(=O)(=O)N1CCC(C(=O)c2ccc(Cl)cc2)CC1
 : 102	10	-3.0	-52	119	i	1
> CCOC(=O)c1c(NC(=O)C2COc3ccccc3O2)sc2c1CC(C)(C)NC2(C)C (stereo not drawn)
 : 125	-4	0.0	/	/	i	0.82
> O=C(Cc1ccccc1)NCCSCc1ccco1
 : 98	-2	-2.5	-36	89	i	0.83
> CC(NC(=O)COC(=O)CSCc1ccccc1)c1ccccc1 (stereo not drawn)
 : 103	-1	/	/	/	i	1
> CC1CCN(CCOc2cccc(Br)c2)CC1
 : 115	-4	-1.1	23	111	i	0.96
> COc1ccc(OCC(=O)NC2CC(C)(C)NC(C)(C)C2)cc1
 : 105	-7	-1.8	18	139	i	0.87
> COc1ccc(CCn2c(=O)[nH]c3cc(C(=O)NCCN4CCOCC4)ccc3c2=O)cc1OC
 : 196	-1	-1.7	36	126	/	/
> Cc1nn(CC(=O)O)c(C)c1N
 : 101	/	/	/	/	i	1

A few values from the entries so far.
Reading for CCC1CCCCN1CCCNC(=O)CCCNC(=O)Cn1cnc2sc3c(c2c1=O)CCCC3 (stereo not drawn) in PKD1 kinase inh: -5
Reading for CCS(=O)(=O)N1CCC(C(=O)c2ccc(Cl)cc2)CC1 in HSV augment primary fold: 1
